Mtb growth – Confirmatory growth inhibition assay against Mycobacterium tuberculosis H37Rv, potency (AID 1949); most inactive calls were filed without a number and no value below 0 was filed; actives 1.6% (n = 100,000); one-dose inhibition, % at 10 µg/mL; IC50 in µg/mL for titrated hits;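 active = confirmed in a dose series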;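 also: bacteria grown 7 days with compound before Alamar blue readout; 0% = untreated bacteria and 100% = reference antibiotic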
The depositor's hits bear a star; i = inactive. An excerpt, so the mix of outcomes need not match the whole.

Compound,Mtb growth
Cn1c(=O)c2ncn(CC(=O)Nc3ccc4oc(-c5ccc(Cl)c(Cl)c5)nc4c3)c2n(C)c1=O,i
COC(=O)c1c(-c2cccc(Br)c2)csc1NC(=O)c1ccc([N+](=O)[O-])cc1,i
COc1ccc(CNCCNC(=O)c2nonc2N)cc1OC,i
O=C(c1cc2cc(Cl)cc(Cl)c2oc1=O)N1CCc2ccccc2C1,0%
O=S(=O)(Cc1ccccc1Cl)Nc1ccccn1,i
Cc1ccc(OCCN2CCCCCC2)cc1,i
O=C(O)C1CC=CCC1C(=O)Nc1nc2ccc(Cl)cc2s1 (stereo not given),3%
CC(=O)c1cccc(NC(=O)c2ccc(COc3cccc(Cl)c3)o2)c1,i
O=C(Oc1ccc(Br)cc1C(=S)N1CCCC1)c1ccc(F)cc1,i
N/C(=N\OC(=O)CCN1C(=O)c2ccccc2C1=O)c1ccccn1,0%
CC1=NN(c2ccc(C)c(Cl)c2)C(=O)/C1=C\c1ccccc1O,i
CCOC(=O)c1sc2nc3c4ccccc4c(-c4ccc(C)cc4)nn3c(=O)c2c1C,i
Cc1nnc(SCC(=O)N2CCOCC2)n1C,i
CC(Sc1nc(N)cc(=O)[nH]1)C(=O)NC1CCCCC1 (stereo not given),i
O=C(Cn1cnc2ccccc2c1=O)Nc1ccc(Cl)c(Cl)c1,i
CC(=O)Nc1ccc(NC(=O)C2CC(=O)N(Cc3ccccc3)C2)cc1 (stereo not given),4%
CC(=O)c1cccc(NC(=S)NNC(=O)C2CC2c2ccc(C(C)(C)C)cc2)c1 (stereo not given),i
COCCn1c(Cc2ccccc2)nnc1SCc1ccc2ccccc2c1,2%
O=[N+]([O-])c1cccc(S(=O)(=O)NCCOc2ccccc2)c1,3%
Cc1cc(C(=O)Nc2ccc(S(=O)(=O)NC(C)(C)C)cc2)ccc1[N+](=O)[O-],i
CC1=CC(c2ccc(Cl)cc2)n2nc(NC(=O)CCC(=O)O)nc2N1 (stereo not given),i
S=C(Nc1ccccc1)N1N=C(c2cccs2)CC1c1cccs1 (stereo not given),i
C=CCNCCCOc1ccc(C(C)CC)cc1 (stereo not given),i
Cc1ccc2c(Cl)c(C(=O)NCc3cccs3)sc2c1,i
Brc1cccc(CNCC2CCCO2)c1 (stereo not given),0%
COc1ccc(C(=O)CN2CCN(C(=O)c3cccc(OC)c3)CC2)cc1,i
CS(=O)c1nc(-c2cccs2)cc(-c2ccccc2)c1C#N (stereo not given),i
COc1cccc(NC(=O)C2CCN(S(C)(=O)=O)CC2)c1,i
Cn1c(COc2ccccc2)nnc1SCC(=O)Nc1ccc2c(c1)OCO2,i
CCC(CO)(C(=O)OC1CC2CCC(C1)N2C)c1ccccc1 (stereo not given),i
CCOc1ccc(NC(=O)CNS(=O)(=O)c2c(C)cc(C)cc2C)cc1,i
COc1ccc(-c2cc(C(F)(F)F)nc(SCCC(=O)NCc3ccccc3OC)n2)cc1,i
CC(=O)c1cccc(NC(=O)Nc2nc3c(Cl)cccc3s2)c1,1%
CC1(C)CC(=O)C2=C(C1)Nc1cc(C(=O)c3ccccc3)ccc1NC2c1ccco1 (stereo not given),i
COc1ccc(C(=O)Nc2sc3c(c2C(=O)NC2CCS(=O)(=O)C2)CCCC3)cc1OC (stereo not given),i
Cn1cc(C(=O)C(=O)NCc2ccccc2)c2ccccc21,i
Cc1cccc(NC(=O)C(C)Sc2ccccc2)c1C (stereo not given),i
CCC(=O)N1CCN(c2ccc(NC(=O)c3cccc4c(Br)cccc34)cc2)CC1,i
CCc1ccc(NC(=O)c2ccc(NS(C)(=O)=O)cc2)cc1,i
COc1ccccc1-n1cnc2cc(C(=O)O)ccc21,i
O=C1CCCCC1Oc1ccc2c3c(c(=O)oc2c1)CCCC3 (stereo not given),i
COc1cc(NC(=O)CSC2=C(C#N)C(c3ccco3)C(C(=O)Nc3ccccc3OC)=C(C)N2)c(OC)cc1Cl (stereo not given),i
CC(=O)Nc1nnc(SCC(=O)N2CCN(c3ccccc3)CC2)s1,i
CCOCCOc1cccc(C(=O)NC(C)c2ccc(OC)cc2)c1 (stereo not given),i
COc1ccc(S(=O)(=O)NCCSC(C)(C)C)c(Cl)c1Cl,i
COc1ccc(/C=C/C2=NOC(O)(C(F)(F)F)C2)cc1 (stereo not given),11%
COc1ccc(CCCc2nnc(SCC(=O)N3CCN(c4ccccc4)CC3)n2C)cc1C,i
Cc1ccc(S(=O)(=O)Oc2cc3oc(=O)c4c(c3cc2Cl)CCC4)cc1,i
O=C(COc1cccc2ccccc12)NS(=O)(=O)c1ccc(Cl)cc1,i
O=C(O)C(c1ccccc1)N1C(=O)c2ccccc2C1=O (stereo not given),i
Cc1cc(C)nc(SCC(=O)Nc2nc3c(s2)C(=O)CC(C)(C)C3)n1,i
CC(NC(=O)C1CCCN1S(=O)(=O)c1ccccc1)c1ccccc1 (stereo not given),i
COc1cccc(OCCOc2ccc(C)cc2)c1,5%
c1ccc(COc2ccc(CNc3ccc(CNc4ncn[nH]4)cc3)cc2)cc1,i
O=C(CC1COc2ccccc2O1)NC1CCCCC1 (stereo not given),i
O=S(=O)(Nc1c(F)c(F)c(F)c(F)c1F)c1ccc(Cl)cc1,1%
Fc1ccccc1Cn1cc(C(=S)N2CCCC2)c2ccccc21,i
CCN(CC)c1ccc(C2C3=C(CC(C)(C)CC3=O)Nc3[nH]c(=S)[nH]c(=O)c32)cc1 (stereo not given),i
CCC(C(=O)NCc1cccs1)c1ccccc1 (stereo not given),i
CCOc1ccccc1NC(=S)Nc1ccc(C(C)C)cc1,i

Among those listed so far, two contain a CF3 group.
Compound,Mtb growth
COc1ccc(-c2cc(C(F)(F)F)nc(SCCC(=O)NCc3ccccc3OC)n2)cc1,i
COc1ccc(/C=C/C2=NOC(O)(C(F)(F)F)C2)cc1 (stereo not given),11%

The list continues.
Compound,Mtb growth
CC(C)CNC(=S)Nc1ccccc1,i
COC(=O)c1cc(NC(=O)CSc2nnc(C(CC(C)C)NC(=O)c3ccccc3Cl)n2C)ccc1Cl (stereo not given),4%
O=S(=O)(Nc1ccc(Br)c(Cl)c1)c1cccs1,i
Cn1c2ccccc2c2nnc(SC3CCCCC3=O)nc21 (stereo not given),i
N#C/C(=C/c1ccco1)c1cccc(F)c1,i
CC(C)(C)NS(=O)(=O)c1ccc(NC(=O)C(Sc2ccccc2)c2ccccc2)cc1 (stereo not given),i
COc1ccc(C(=O)NC(=S)N2CCN(c3cccc(Cl)c3)CC2)cc1OC,i
Cc1ccc(S(=O)(=O)N(c2ccc(F)cc2)C(F)F)cc1,i
Cc1cc(=O)[nH]c(SCc2nc3ccccc3[nH]2)n1,i
COc1ccccc1Cc1noc(Cc2ccc(Cl)cc2)n1,4%
CCCCc1nc2c(o1)NC(N)=C(C#N)C2c1ccc(N(C)C)cc1 (stereo not given),i
COC(=O)C1=CN(C(C)C)C=C(C(=O)OC)C1c1ccc(OCc2ccccc2)c(OC)c1,i
CCOC(=O)c1cnc2c(C)cc(Cl)cc2c1NCCO,0%
CCOC(=O)C1CCN(CC(O)COc2ccccc2)CC1 (stereo not given),1%
NC(=O)C1CCN(C(=S)Nc2ccc(F)cc2)CC1,i
Fc1ccc(-n2c(-c3ccccc3)n[nH]c2=S)c(F)c1,i
C#CCOc1cc(Br)c(CO)cc1OC,1%
COc1c(C)cccc1C(=O)NC(=S)Nc1ccc2c(c1)Cc1ccccc1-2,i
O=S(=O)(c1ccc(F)cc1)N1CCN(CC2CC3C=CC2C3)CC1 (stereo not given),8%
C=CCn1c(SCC(=O)NCc2ccco2)nc2sc(-c3ccccc3)cc2c1=O,i

Carrying on:
structure | Mtb growth
O=S(=O)(c1ccc(Cl)c(C(F)(F)F)c1)N1CCN(c2ccccc2F)CC1 | i
O=C(CC1Sc2ccccc2NC1=O)Nc1ccccc1SC(F)(F)F (stereo not given) | i
Cc1c(/C=C/c2nc3ccccc3c(=O)n2-c2ccccc2)c2ccccc2n1C | i
CSc1nc2cc(F)c(F)cc2n1C | i
Cc1ccc(S(=O)(=O)N(C)c2ccc(C(=O)NCc3ccc(Cl)cc3Cl)cc2)cc1 | 1%
O=C(OCc1ccccc1Cl)c1cccs1 | 49%
CC(=O)Cc1nsc(NC(=O)c2cc(-c3cccc(C(F)(F)F)c3)oc2C)n1 | 2%
Cc1ccc(NC(=O)c2ccc(-c3nn(C)c(=O)c4ccccc34)cc2)c(C)c1 | 50%
COc1cc(OC)cc(C(=O)NCCNC(=O)c2ccccc2)c1 | i
O=C(c1cccc(F)c1)N1CCCc2ccccc21 | i
CCC(=O)Nc1ccc(C(=O)NCc2ccco2)cc1 | i
O=c1[nH]c(CN2CCN(CCO)CC2)nc2ccccc12 | i
O=C(c1ccc(Cl)cc1)N1CCN(c2ccc([N+](=O)[O-])c(SCc3ccco3)c2)CC1 | i
CCOC(=O)C1=C(C)N=c2s/c(=C\c3ccc(Br)o3)c(=O)n2C1c1ccc(C)cc1 (stereo not given) | 1%
Cc1ccc(C(=O)Nc2ccc([N+](=O)[O-])cc2C)cc1 | i
Cc1ccc(C(C)C)c(OCCSc2nc3ncnc(N)c3[nH]2)c1 | 1%

Shown with each value named: 3 of the compounds above
CCC(=O)Nc1ccc(C(=O)NCc2ccco2)cc1
  Mtb growth: i

O=c1[nH]c(CN2CCN(CCO)CC2)nc2ccccc12
  Mtb growth: i

Cc1ccc(C(C)C)c(OCCSc2nc3ncnc(N)c3[nH]2)c1
  Mtb growth: 1%

Next part.
structure | Mtb growth
Cc1ccc(S(=O)(=O)N(CC(=O)N2CCN(c3ccccc3)CC2)Cc2ccccc2)cc1 | 9%
O=C(C(F)F)N(Cc1ccccc1)Cc1ccccc1 | i
Cc1ccc(CC2CC(=O)N(CCc3ccccc3)C2=O)cc1 (stereo not given) | 11%
CCN(CC)C1C(=O)Nc2ccc(Cl)cc2C1c1ccccc1 (stereo not given) | i
Cc1ccccc1OCC1CNC(=O)O1 (stereo not given) | 1%
COc1cc(/C=C2/C(=O)N(c3ccccc3)N=C2C)cc(Cl)c1OC(=O)c1cccs1 | i
O=C(CSc1nnc2scc(-c3ccc(Cl)cc3)n12)Nc1ccc(F)c(Cl)c1 | 1%
COc1ccc(OC)c(NC(=O)C(C)NS(=O)(=O)c2ccc(C)cc2)c1 (stereo not given) | i
O=C(CCCC(=O)N1CCCCCC1)N1CCCCCC1 | i
Cc1ccc(S(=O)(=O)N(C)c2ccc(C(=O)Nc3cccnc3)cc2)cc1 | 9%
C=CCn1c(SCC(=O)NCc2ccco2)nc2sc3c(c2c1=O)CCC(C)C3 (stereo not given) | i
C=CCn1cnc2c1c(=O)[nH]c(=O)n2C | i
CCOc1ccc(NC(=O)CSc2nnc(-c3cccs3)n2-c2ccccc2)cc1 | i
O=C(Nc1nc(C(F)(F)F)c(-c2ccccc2)s1)c1cccnc1 | i
CCCOc1ccc(CC(=O)Nc2cc([N+](=O)[O-])ccc2OC)cc1OC | i
COCCCNC(=S)NNC(=O)c1cc(Cl)c(O)c(Cl)c1 | i

Part of the list above, field by field.
O=C(Nc1nc(C(F)(F)F)c(-c2ccccc2)s1)c1cccnc1
  Mtb growth = i
CCCOc1ccc(CC(=O)Nc2cc([N+](=O)[O-])ccc2OC)cc1OC
  Mtb growth = i
COCCCNC(=S)NNC(=O)c1cc(Cl)c(O)c(Cl)c1
  Mtb growth = i

Additional results follow.
structure | Mtb growth
Cc1ccc(-c2nc3ccccc3c(=O)n2CCc2ccccc2)cc1 | i
Cc1cccc(C(=O)Nc2nnc(SCC(=O)Nc3ccc(F)cc3)s2)c1 | 1%
COc1ccc(C(=O)N2CCN(C(=O)c3ccc(F)cc3)CC2)cc1 | i
O=C(NCCCN1CCOCC1)C(=O)NC1CC1 | i
COCCN1C=C(C(=O)OC)C(c2cccc(C)c2)C(C(=O)OC)=C1 | i
O=C(NCc1ccco1)/C(=C\C=C\c1ccccc1)NC(=O)c1ccccc1Cl | 8%
COc1ccc(C)cc1NC(=O)CN1C(=O)c2cccc3cccc1c23 | i
CC(=O)Nc1ccc([N+](=O)[O-])c(C)c1C | 3%
CCc1ccc(OCC(=O)NCc2ccco2)c(Br)c1 | 7%
CC(=O)c1ccc(NS(=O)(=O)c2cccc(F)c2)cc1 | i
COc1ccc(C(=O)Nc2ccccc2C(=O)NCCCn2ccnc2)cc1 | i
COc1ccccc1NC(=O)c1c(C)oc2c1CCCC2 | 22%
COc1ccc(-c2nc3ccccc3o2)cc1NC(=S)NC(=O)c1ccc(Cl)c(Cl)c1 | i
COC(=O)Cc1cc(=O)[nH]c(Nc2nc3ccccc3o2)n1 | i
Cn1nnc2cc(NC(=O)NC(C)(C)C)ccc21 | i
Cc1c(Cl)cccc1NC(=O)C1CCN(C(=O)c2ccc(F)cc2)CC1 | i
Oc1ccc(Cl)cc1CNc1ccc(Br)cn1 | i
Cc1ccc(S(=O)(=O)N(Cc2ccc(Cl)cc2)c2ccccc2C(=O)N2CCOCC2)cc1 | 1%
COc1ccc(CCn2c(-c3ccc(Cl)cc3)n[nH]c2=S)cc1OC | i
O=C(O)c1cccnc1SC/C=C/c1ccccc1 | i
CCCC(=O)Nc1ccc(S(=O)(=O)N2CCOCC2)cc1 | i
COCCCN1C(=O)C(O)=C(C(=O)c2ccco2)C1c1cccc(Br)c1 (stereo not given) | i
CCn1cc(CNC(=O)c2cccc([N+](=O)[O-])c2)c(C)n1 | i

An excerpt of these results, with each value named.
> Oc1ccc(Cl)cc1CNc1ccc(Br)cn1
  Mtb growth: i
> Cc1ccc(S(=O)(=O)N(Cc2ccc(Cl)cc2)c2ccccc2C(=O)N2CCOCC2)cc1
  Mtb growth: 1%
> COc1ccc(CCn2c(-c3ccc(Cl)cc3)n[nH]c2=S)cc1OC
  Mtb growth: i
> O=C(O)c1cccnc1SC/C=C/c1ccccc1
  Mtb growth: i

Compound activity deposited in PubChem BioAssay by Southern Research Institute.
